# Screens from PubChem BioAssay.
# HTT prom inh: HTT promoter inhibition. HEK293 HTT promoter firefly luciferase reporter (activity 0% = vehicle and -100% = no light), 24 h. Potency, µM (highest dose often 57.5 µM), without a hit: top-dose activity change, negative = inhibition, most hits filed as inhibitors. 48,000 tested, 0.93% active. AID 1508623; active = well fitted inhibition curve with a large enough effect; inconclusive = small, poorly fitted or top-dose-only effect; inactive = no such curve, though single readings can be large or run the other way; note: nearly all actives have a fitted effect of over 50% in size
#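 Firefly luciferase signal from promoter-reporter HEK293 cells was scaled between vehicle (0%) and zero RLU (-100%). Compounds were tested at final concentrations of up to 57.5 uM over 24 h at 37 degrees C. PTC124 at 50 uM final served as control inhibitor.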
# PMP22 txn: modulators of PMP22 gene transcription in S16 Schwann cells; S16 Pmp22-F2sN Schwann cells (luciferase reporters placed in the Pmp22 gene), FLuc/NLuc coincidence luminescence, 24 h; Potency, µM (doses to about 57.5 µM), inactives show at the top dose activity change, negative = inhibition, actives largely listed as inhibitors; 43,000 tested, 2% active; active = clear falling dose curves in both reporters; inconclusive = both reporters move, but less clearly or upward; inactive = either reporter flat; the % is the NLuc reporter signal; note: % is set by controls: 0 for no effect and ±100 for the full control effect; some results filed as inactive show a strong effect at the top dose
#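 Transcriptional readout in edited S16(c9) cells: two luciferases reported from the Pmp22 locus, measured in turn after 24 h compound incubation.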
# Active calls of the source: *; ? = inconclusive; nt = not tested or not shown; [ ] = another dose, or the depositor's remark. Potency is the fitted concentration of half-maximal effect. Rows are unselected; 2.7% or so of the library scored in one or more.
SMILES,HTT prom inh,PMP22 txn
Cc1cc(C)cc(NC(=O)Cn2c3ncccc3c(=O)n2-c2ccc(C)c(C)c2)c1,-24%,26%
Cc1ccc(-c2nnc(Nc3ccc(Cl)cc3)c3ccccc23)cc1S(=O)(=O)N1CCOCC1,-28%,-3%
Cc1cccc(NC(=O)Cn2c(=O)c3cccn3c3ccccc32)c1C,-12%,?
CC(=NNC(=S)N1CCC1)c1ccccn1,?,nt
N#C/C(=C\c1cccc(F)c1)c1nc(-c2cc3ccccc3oc2=O)cs1,6%,-18%
Cc1ccc(C)c2sc(NC(=O)c3ccc(S(=O)(=O)N4CCC(C)CC4)cc3)nc12,?,-23%
CCOC(=O)c1noc2ncn(CC(=O)Nc3ccccc3OC)c(=O)c12,-2%,-2%
Cc1nn(CC(=O)O)c(=O)c2cc3cc(F)ccc3n12,0%,0%
Cc1ccc(N(CC(=O)Nc2cccc(F)c2)S(=O)(=O)c2cccs2)cc1,-25%,9%
Cc1ccc(NC(=O)c2cc3c(-c4ccccc4)nn(-c4ccccc4)c3s2)cc1,8%,-28%
CCC(Oc1ccccc1)C(=O)Nc1cc(-c2ccccc2F)nn1-c1ccccc1 (stereo unspecified),-32%,?
CCOC(=O)C1=C(CN2CCCCC2)NC(=O)NC1c1ccc(C)cc1 (stereo unspecified),-5%,?
O=S(=O)(Nc1ccc2oc3c(c2c1)CCCC3)c1cc(Cl)ccc1Cl,-3%,4%
Cc1c(Cl)cccc1NC(=O)CN1C(=O)CCn2nc(-c3cccn3C)cc21,-4%,-22%
Cc1ccccc1-c1nn2c(=O)cc(CN3CCN(C(=O)/C=C/c4ccccc4)CC3)nc2s1,-5%,-43%
COc1cc(-c2cc(OC)c3c(C)oc(C)c3c(=O)c2)ccc1OC(=O)c1cccc(Cl)c1,-8%,?
COc1cc(C(=S)N2CCOCC2)cc(OC)c1OC,7%,nt
CCCC(=O)N1CC(=O)Nc2ccc(Cl)cc2C1c1ccc(F)cc1 (stereo unspecified),-20%,-1%
CCc1ccc(-c2nn(CC(=O)NC3CCCC3)c3c2cnc2ccc(C)cc23)cc1,-16%,6%
Cc1cccc(C)c1NC(=O)C(NS(=O)(=O)c1ccc2c(c1)CCC(=O)N2)c1ccccc1 (stereo unspecified),-10%,-4%
COc1cccc(OC)c1C(=O)Nc1ccc2c(c1)N(C(C)=O)CCC2,-19%,2%
COc1ccc(OC)c(Nc2ncnc3c2cnn3-c2ccc(C)cc2)c1,-20%,?
Cc1cccc(-c2nc3cc(NC(=O)Cc4ccc(Cl)cc4)ccc3o2)c1,-9%,?
Cc1ccc2c(n1)sc1c(=O)n(-c3cccc(C(F)(F)F)c3)nnc12,11%,?
CCc1ccc(S(=O)(=O)c2nnn3c2nc(N2CCN(c4ccccc4)CC2)c2cc(Cl)ccc23)cc1,5%,2%
# (further entries)
SMILES,HTT prom inh,PMP22 txn
CCOc1ccc(CNC(=O)CCS(=O)(=O)c2cc3c4c(c2)CCN4C(=O)CC3)cc1OC,-17%,?
COc1cccc(CC(=O)Nc2c(C(=O)N3CCN(c4ccccc4)CC3)oc3ccccc23)c1,?,-13%
O=C(O)Cc1cccc(OCCCN(Cc2cccc(C(F)(F)F)c2Cl)CC(c2ccccc2)c2ccccc2)c1,-2%,nt
Cc1nc2nc(C)c(CCC(=O)NCc3ccccc3)c(C)n2n1,-12%,0%
O=C(Cn1nc(Cc2cccnc2)c2ccccc2c1=O)N1CCN(c2ccccc2F)CC1,-15%,-4%
CCCCN(CCCC)C(=O)CN(C)S(=O)(=O)c1ccc2c(c1)c(=O)n(C)c(=O)n2C,-21%,?
O=c1[nH]c(=O)n([C@H]2C[C@@H](O)[C@@H](CO)O2)cc1F,-23%,nt
Cc1ccc(S(=O)(=O)c2cn(Cc3ccccc3)c3cc(N4CCCC4)c(F)cc3c2=O)cc1C,-15%,-30%
Cc1cc(NCc2ccc(Cl)cc2)n2cnnc2n1,25µM*,?
Cc1ccc2occ(CC(=O)Nc3c(C)cccc3C)c2c1,-21%,-2%
CCc1cccc(NC(=O)c2cnc(SC)nc2-c2ccccc2)c1,-19%,-17%
CCS(=O)(=O)c1ncc(Cl)c(C(=O)N2CCN(c3cccc(Cl)c3)CC2)n1,?,?
CCC(=O)N1CCc2cc(S(=O)(=O)CCC(=O)Nc3ccc(OC(F)(F)F)cc3)ccc21,?,?
CCOc1ccc(C2CC(=O)c3c([nH]c(C(=O)OCCOc4ccccc4)c3C)C2)cc1 (stereo unspecified),-31%,?
COc1ccccc1N1CCN(c2ncnc3c2cnn3C)CC1,-4%,-26%
Cc1ccc(-c2nc(C)c(CCNC(=O)C(=O)Nc3cc(C)ccc3C)s2)cc1,6%,?
NC[C@H]1O[C@H](O[C@H]2[C@H](O[C@@H]3O[C@H](CO)[C@@H](O)[C@H]3O)C(O)[C@H](N)C[C@@H]2N)[C@H](N)[C@@H](O)[C@@H]1O (stereo partly specified),3%[11.5 µM],nt
COc1cccc(/C=C/C(=O)Nc2ccc3nc(N4CCN(C)CC4)cc(C)c3c2)c1OC,-23%,?
CCOc1ccc(NC(=O)CSc2nc3c(oc4ccccc43)c(=O)n2CCOC)cc1,-17%,?
Cc1cccc(C)c1Nc1c(-c2cccs2)nc2ncccn12,-25%,-3%
COC(=O)CC1Oc2ccccc2-n2cc(-c3ccc(C)cc3)nc21 (stereo unspecified),-6%,-2%
CCC(C(=O)NC1CCCCC1)n1c(SCc2cccc(F)c2)nc2ccncc21 (stereo unspecified),?,?
COc1ccccc1Cn1c(SCC(=O)C(C)(C)C)nc2ccccc2c1=O,-39%,14%
CCCC(=O)Nc1ccc2c(c1)nc(CN1CCN(C(=O)OCC)CC1)n2C(C)C,?,?
Cc1oc2ncn(C)c(=O)c2c1C(=O)NCc1ccc(Cl)cc1,14%,-2%

# Two entries from above, with two lines to a compound:
# Results follow in this order: HTT prom inh	PMP22 txn
COc1cccc(CC(=O)Nc2c(C(=O)N3CCN(c4ccccc4)CC3)oc3ccccc23)c1
    ?	-13%
O=C(O)Cc1cccc(OCCCN(Cc2cccc(C(F)(F)F)c2Cl)CC(c2ccccc2)c2ccccc2)c1
    -2%	nt

# Remaining list, next part
SMILES,HTT prom inh,PMP22 txn
CCC1CN(C(=O)N2CCC(C(=O)NCc3cc(OC)c(OC)c(OC)c3)CC2)c2ccccc2O1 (stereo unspecified),-10%,-9%
Cn1c(=O)c2c(nc(N3CCOCC3)n2Cc2ccccc2Cl)n(C)c1=O,-15%,-8%
COc1cc(NC(=O)c2ccc(C)c(Cl)c2)ccc1NC(=O)c1cc2ccccc2o1,-10%[11.5 µM],?
COc1cccc(N2CCN(C(=O)C3CCC(CNS(=O)(=O)c4ccc(Br)s4)CC3)CC2)c1 (stereo unspecified),?,-30%
CCOC(=O)N1CCN(C(=O)CN(c2ccc(C)cc2C)S(=O)(=O)c2ccccc2)CC1,-10%,1%
Cc1sc2ncn(CC(=O)N3CCN(c4ccc(F)cc4)CC3)c(=O)c2c1S(=O)(=O)N1CCCCC1,-9%,5%
CC(=O)N1CCc2cc(Br)cc(S(=O)(=O)CCC(=O)NCc3ccc(F)cc3)c21,-11%,-16%
CCN(c1ccc(C)cc1C)S(=O)(=O)c1nnc(NC(=O)c2ccc(F)cc2)s1,?,?
Cc1cc(NC(=O)NCc2ccc3c(c2)CCN3C(=O)c2ccccc2)ccc1Br,?,-14%
CC1=C(C(=O)OCC2CCCCC2)C(c2ccccc2F)CC(=O)N1 (stereo unspecified),?,?
CCOc1ccc(CCNC(=O)C2Cc3ccccc3N2C(=O)CC)cc1 (stereo unspecified),-13%,-2%
Cc1ccc(S(=O)(=O)C(CNC(=O)C(=O)NCCc2ccccc2)c2ccco2)cc1 (stereo unspecified),?,-2%
COc1ccc(CCNC(=O)c2ccc3c(c2)CCN3S(C)(=O)=O)cc1OC,-7%,-81%
CCC(=O)N1CCc2cc(Br)cc(S(=O)(=O)CCC(=O)N3CCN(c4cccc(C(F)(F)F)c4)CC3)c21,-22%,?
Cc1ccc2c(c1)-c1cc(C)nn1C(c1cc(Br)ccc1O)N2 (stereo unspecified),6%,?
Cc1ccc(-c2nc(NC(=O)CSc3ncnc4sc5c(c34)CCC(C)C5)ns2)cc1 (stereo unspecified),1%,-6%
C=C(C)[C@@H]1CC[C@]2(C)CC[C@]3(C)[C@H](CC[C@@H]4[C@@]5(C)CC[C@H](O)C(C)(C)[C@H]5CC[C@]43C)[C@@H]12,-10%,nt
O=C(NCCc1csc(-c2ccc(C(F)(F)F)cc2)n1)c1ccccc1Cl,?,-17%
O=c1c(N2CCN(c3ccc(F)cc3)CC2)csc2ccc(F)cc12,1%,-55%
COc1ccc(-n2nc3c(N4CCC(C(=O)NCc5ccccc5C)CC4)nnc(C)c3c2C)cc1,?,?
COc1ccc(-c2cn3c(n2)sc2cc(C(=O)Nc4ccc(C)cc4C)ccc23)cc1,1%,3%
COc1ccccc1N1CCN(C(=O)CSc2nc3ccccc3nc2Cc2ccccc2)CC1,-6%,?
O=C(NCc1ccccc1Br)c1ccc2nc(N3CCCCC3)sc2c1,-14%,-8%
O=C(c1ccc2c(c1)N(Cc1ccccc1F)C(=O)c1ccccc1S2=O)N1CCC(Cc2ccccc2)CC1 (stereo unspecified),?,?
COCCCn1c(=O)c2sccc2n2c(CCCC(=O)NCc3cccc(OC)c3)nnc12,-16%,-8%

# Full records, quoted from the list. Order of screens: HTT prom inh, PMP22 txn
# CCc1ccc(S(=O)(=O)c2nnn3c2nc(N2CCN(c4ccccc4)CC2)c2cc(Cl)ccc23)cc1 across the screens: 5%, 2%
# Cc1cccc(C)c1Nc1c(-c2cccs2)nc2ncccn12 across the screens: -25%, -3%

# Additional structures
SMILES,HTT prom inh,PMP22 txn
O=C(c1ccc(F)cc1)n1nc(-c2ccccc2)nc1NCc1ccco1,16%,?
COc1cc(OC)c(NC(=O)C2=C(C)C(=O)OC23CCCCC3)cc1Cl,-16%,-17%
Cc1ccc(-c2ccc(=O)n(CC(=O)NC(C)c3ccccc3)n2)cc1 (stereo unspecified),-3%,16%
CC(C)c1ccc(NC(=O)CN2C=NS(=O)(=O)c3ccccc32)cc1,-10%,-14%
COc1ccc(C)cc1NS(=O)(=O)c1c(C)nc2sc(C)cn2c1=O,-24%,-34%
CCOc1ccc(-c2n[nH]c3c2C(c2ccccc2OC)N(c2ccc(Br)cc2)C3=O)cc1 (stereo unspecified),1%,?
Cc1ccc(O)c(NC(=O)c2cc(-c3ccccc3O)no2)c1,41%[activator],-21%
Cc1ccc(S(=O)(=O)NC2(C(F)(F)F)NC(=O)N(c3ccc(F)cc3)C2=O)cc1 (stereo unspecified),-13%,-28%
CC(C)c1ccc(NC(=O)C(NS(=O)(=O)c2ccc3c(c2)CCC(=O)N3)c2ccccc2)cc1 (stereo unspecified),-17%,-8%
O=C1c2[nH]nc(-c3ccccc3O)c2C(c2ccccc2F)N1Cc1cccnc1 (stereo unspecified),-28%,-8%
CCOc1ccc(-n2c(SC(C)C(=O)OC)nc3c([nH]c4ccccc43)c2=O)cc1 (stereo unspecified),-16%,-53%
Nc1c(C(=O)NCc2ccc(Cl)cc2Cl)nnn1Cc1ccc(Br)cc1,?,-4%
Cc1ccc(Cn2c(C)c(CNCC(C)c3ccccc3)c(C(=O)O)c2C)cc1 (stereo unspecified),-26%,0%
COc1ccccc1C(=O)Nc1nnc2n1CCS2,54%[activator],2%
CCOc1ccc(CNC(=O)c2ccc3c(c2)nc2n3CCC(C)C2)cc1OC (stereo unspecified),-20%,4%
COc1ccc(C(=O)Nc2cc(S(=O)(=O)c3ccc(Cl)cc3)c(O)c(C)c2C)cc1,12%,?
CCc1ccc(OCc2nc(-c3ccc(OC)cc3)no2)c(Br)c1,-12%,-12%
Cc1cc(-n2c(C)nc3ccccc3c2=O)ccc1NC(=O)c1cccc([N+](=O)[O-])c1C,-3%,-55%
CN(C)c1ccc(CNc2nc(-c3ccco3)nn2S(C)(=O)=O)cc1,37%[activator],-18%
CCOc1ccc(NC(=O)C(NS(=O)(=O)c2cccc3nsnc23)c2ccccc2)cc1 (stereo unspecified),-12%,?
COc1ccc(Nc2c3c(nc4nncn24)CCC3)cc1OC,-28%,?
CC(C)NC[C@@H](O)COc1ccc(CC(N)=O)cc1,1%,nt
Cc1ccc(C)c(Cn2c(C(C)NC(=O)c3ccc(F)cc3)nc3ccccc32)c1 (stereo unspecified),15%,11%
O=C(Nc1cccc(NC(=O)c2ccccc2Cl)c1)c1cccc(Br)c1,-29%,-4%
Cc1cccc(C)c1OCC(=O)NC(Cc1c[nH]c2ccccc12)C(=O)O (stereo unspecified),-9%,-9%

# Ordered by the number under HTT prom inh (falling): five of the compounds above.
canonical_smiles	HTT prom inh
Cc1ccc(C)c(Cn2c(C(C)NC(=O)c3ccc(F)cc3)nc3ccccc32)c1 (stereo unspecified)	15%
Cc1ccc(-c2ccc(=O)n(CC(=O)NC(C)c3ccccc3)n2)cc1 (stereo unspecified)	-3%
CC(C)c1ccc(NC(=O)CN2C=NS(=O)(=O)c3ccccc32)cc1	-10%
Cc1ccc(Cn2c(C)c(CNCC(C)c3ccccc3)c(C(=O)O)c2C)cc1 (stereo unspecified)	-26%
COc1ccc(Nc2c3c(nc4nncn24)CCC3)cc1OC	-28%

# Quoted at random: 2 entries already listed.
SMILES,HTT prom inh,PMP22 txn
CC(C)c1ccc(NC(=O)CN2C=NS(=O)(=O)c3ccccc32)cc1,-10%,-14%
CN(C)c1ccc(CNc2nc(-c3ccco3)nn2S(C)(=O)=O)cc1,37%[activator],-18%
